NS1 function inh: inhibitors of influenza NS1 protein function; AID 2326; S. cerevisiae slowed by influenza A NS1, growth recovery by OD600; Potency, µM (top dose mostly 46.1 µM), for inactives: top-dose activity, positive = more growth; 270,000 tested, 0.4% active; active means well fitted rising curve with a large enough effect; inconclusive means small, poorly fitted or top-dose-only effect; inactive means no such curve, though single readings can be large or run the other way; also: nearly all actives have a fitted effect of over 50% in size
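Read-out: OD600 growth recovery of NS1-expressing budding yeast. Cells grown overnight at 30C in -URA glucose medium, washed, resuspended and diluted 1:100 in 2% galactose assay medium, pH 6.0. Same strain lacking NS1 served as positive control.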
SARS PLP yeast: inhibitors of SARS-CoV papain-like protease in yeast; S. cerevisiae expressing SARS-CoV PLpro, growth rescue; control for the full effect not named in the record; Potency, µM (highest dose often 32.9 µM), for inactives: top-dose activity, positive = growth rescue; 330,000 tested, 0.19% active; AID 485353; active means well fitted rising curve with a large enough effect; inconclusive means small, poorly fitted or top-dose-only effect; inactive means no such curve, though single readings can be large or run the other way; also: 0% is about no effect; nearly all actives have a fitted effect of over 55% in size; growth read by luminescence after 48 h
Cruzain inh Det: cruzain (T. cruzi) inhibition with detergent | 200,000 tested, 0.43% active | purified cruzain, Z-FR-AMC fluorescence, 0.01% Triton | Potency, µM, for inactives: max response, negative = inhibition, usual class: inhibitors;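 also: plate controls were neutral wells for no effect and buffer without enzyme for full effect; nearly all actives have a fitted effect of over 40% in size; top concentration of the series not given in the record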
Target sequence (P25779 123-467 limits assumed): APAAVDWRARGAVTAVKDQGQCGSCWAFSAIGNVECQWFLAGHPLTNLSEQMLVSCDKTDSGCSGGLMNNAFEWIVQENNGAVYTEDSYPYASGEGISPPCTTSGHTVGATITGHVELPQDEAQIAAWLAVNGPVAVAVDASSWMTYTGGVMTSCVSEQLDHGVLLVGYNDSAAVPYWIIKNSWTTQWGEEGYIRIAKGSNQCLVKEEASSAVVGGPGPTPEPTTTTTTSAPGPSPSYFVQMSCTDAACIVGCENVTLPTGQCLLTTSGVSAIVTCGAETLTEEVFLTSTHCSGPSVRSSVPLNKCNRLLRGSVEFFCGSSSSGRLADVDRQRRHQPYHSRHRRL
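Read-out: AMC fluorescence (360 nm excitation, 450 nm emission), four reads over 2 min, first-to-third difference used. Conditions: cruzain 1.5 nM, Z-FR-AMC 2 uM, pH 5.5 acetate, 5 mM DTT, 0.01% Triton X-100.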
Cruzain noTriton: inhibitors of Trypanosoma cruzi cruzain without detergent. purified cruzain, Z-FR-AMC fluorescence, no detergent. Potency, µM, for inactives: max response, negative = inhibition, actives largely listed as inhibitors. 200,000 tested, 2.3% active. AID 1476;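 also: plate controls were enzyme without inhibitor for no effect and buffer without enzyme for full effect; nearly all actives have a fitted effect of over 40% in size; top concentration of the series not given in the record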
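Purified cruzain at 1.5 nM, pre-incubated 15 min with compound at room temperature in 100 mM sodium acetate pH 5.5, 5 mM DTT, 0.00005% Triton X-100. Reaction started with 2 uM Z-FR-AMC; AMC fluorescence increase over 60 s gives rate.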
LASV entry inh: blocks Lassa virus binding to or entry into cells. 300,000 tested, 1.2% active. Lassa virus pseudotype entry inhibition, cell reporter; control for the full effect not named in the record. Potency, µM (doses to about 37.9 µM), for inactives: at the highest dose activity change, negative = inhibition, usual class: inhibitors. AID 540256; active means well fitted inhibition curve with a large enough effect; inconclusive means small, poorly fitted or top-dose-only effect, or effect the other way; inactive means flat fitted curve, though single readings scatter; tested in HEK293 cells; also: % is scaled to controls: 0 for no effect and ±100 for the full control effect; nearly all actives have a fitted effect of over 50% in size; luciferase read-out
RE007 growth inh: less growth of the S. pombe RE007 Vpr strain. Potency, µM (top dose mostly 92.2 µM), for the others: top-dose activity change, negative = less growth. S. pombe RE007 Vpr strain, BacTiter-Glo ATP luminescence, 24 h; control for the full effect not named in the record. 360,000 tested, 0.21% active; active = well fitted falling curve with a large enough effect; inconclusive = small, poorly fitted or top-dose-only effect; inactive = no such curve, though single readings can be large or run the other way;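 also: % is scaled to controls: 0 for no effect and ±100 for the full control effect; nearly all actives have a fitted effect of over 50% in size; the assay follows cell death caused by Vpr and the record does not say whether a fall means rescue or toxicity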
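Fission yeast RE007 carrying one integrated HIV-1 vpr copy, seeded at OD 0.01 in PMG+AL medium with 23 nL pinned compound. Grown 24 h at 30 degrees; viability read by BacTiter-Glo luminescence after 5 min.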
Marburg entry inh: blocks Marburg virus binding to or entry into cells; 300,000 tested, 1.8% active; Potency, µM (top dose mostly 37.8 µM), for the others: at the top dose activity change, negative = inhibition, usual class: inhibitors; Marburg virus pseudotyped entry inhibition, cell reporter; control for the full effect not named in the record; about a third of the inactives were read at about 46 µM; active = well fitted inhibition curve with a large enough effect; inconclusive = small, poorly fitted or top-dose-only effect, or effect the other way; inactive = flat fitted curve, though single readings scatter; tested in HEK293 cells; about a fifth of its hits are not listed in these tables; also: % is scaled to controls: 0 for no effect and ±100 for the full control effect; luciferase read-out
2A StopGo: lowers the luciferase signal of an FMDV 2A StopGo reporter. 410,000 tested, 1.2% active. human cells with a luciferase reporter of 2A StopGo recoding; control for the full effect not named in the record. Potency, µM (highest dose often 57.9 µM), for the others: at the highest dose signal change, negative = less light; active = well fitted falling curve with a large enough effect; inconclusive = small, poorly fitted or top-dose-only effect; inactive = no such curve, though single readings can be large or run the other way; tested in HEK293T cells; also: % is scaled to controls: 0 for no effect and ±100 for the full control effect; nearly all actives have a fitted effect of over 45% in size; luciferase light after 4 h
* = called active by the depositor; ? = inconclusive; / = not tested or not shown; & = joins results of further samples; [ ] = another dose, or the depositor's remark. Unless noted, calls follow the shape of the dose curve; as a rule, active = well fitted curve in the direction sought with a large enough effect; inconclusive = small, poorly fitted or top-dose-only effect, or another doubt; inactive = no such curve, though single readings can be large; an effect the other way counts as inactive or inconclusive. Potency is read from the fitted curve at half-maximal effect.

SMILES	NS1 function inh	SARS PLP yeast	Cruzain inh Det	Cruzain noTriton	LASV entry inh	RE007 growth inh	Marburg entry inh	2A StopGo
CCC(c1nnnn1Cc1ccc2c(c1)OCO2)N1CCN(c2ccc(F)cc2)CC1 (configuration not stated)	-66%	-3%	-7.7%	1%	?	67%	?	?
Cc1ccc2oc(=O)c3cnn(CC(=O)N4CCN(c5ccccc5F)CC4)c3c2c1	/	/	-1.6%	-17%	15%[46.1 µM]	/	1%[46.1 µM]	0%
O=C(NCCCn1cccn1)C1CCC(=O)N(Cc2cccc(C(F)(F)F)c2)C1 (configuration not stated)	-4%	3%	/	/	/	-9%	/	-3%
COc1ccc(NC(=O)c2ccc3snnc3c2)cc1OC	/	/	-7.5%	9%	-19%[46.1 µM]	/	2%[46.1 µM]	6%
Cn1cccc1CNCc1ccccc1Cl	12%	-4%	1.5%	-2%	1%	-8%	4%	13%
O=C(Nc1ccc(Cl)cc1)c1ccc2c(c1)N(Cc1ccccc1)CCS2	/	/	-11%	32µM*	-27%[46.1 µM]	/	-7%[46.1 µM]	-3%
CCOc1ccccc1/C=C(\C#N)C1=CCCC1	11%	0%	/	/	?	6%	4%[46.1 µM]	-7%
C/C(=N\NC(=O)c1ccccc1)c1cc2cc([N+](=O)[O-])ccc2oc1=O	-32%	?	-12%	0%	-41%	1%	?	24%
Cc1oc(-c2ccc(Cl)cc2)nc1CN1CCCC(C(=O)NC2CC2)C1 (configuration not stated)	-5%	-2%	/	/	/	-22%	/	-9%
Cn1[nH]c(=O)c(Cl)c(Cl)c1=O	1%	3%	0.1%	-7%	3%	-12%	26%[46.1 µM]	5%
Cc1n[nH]c(C)c1S(=O)(=O)N1CCCC(C(=O)Nc2nccs2)C1 (configuration not stated)	0%	-4%	2.3%	-1%	-1%	23%	?	0%
CCCCCCCC(=O)OCC(COC(=O)CCCCCCC)OC(=O)CCCCCCC	/	2%	8.4%	-7%	/	-4%	0%	-10%
Oc1ccccc1-c1nnc(COc2ccccc2)o1	-12%	-7%	0.9%	-4%	/	-12%	/	53%[activator]
O=C(Nc1ccc(-c2ccc([N+](=O)[O-])cc2)cc1)c1ccccc1F	/	-2%	/	/	-13%[46.1 µM]	11%	2%[46.1 µM]	-1%
CCOc1cc(/C=N/NC(=O)COc2cccc(C)c2)ccc1OC(=O)c1cccs1	27%	4%	2.3%	?	?	-15%	-14%	-6%
OCCN(Cc1cccnc1)Cc1ccccn1	/	/	/	/	17%[46.1 µM]	11%	-2%	-7%
COc1ccccc1NC(=O)/C=C/c1ccc(OC)c(S(=O)(=O)N2CCOCC2)c1	/	-1%	/	/	/	4%	19%[46.1 µM]	14%
O=C(Nc1ccc(C(=O)N2CCOCC2)cc1)c1ccc([N+](=O)[O-])cc1	12%	-7%	/	/	-9%[46.1 µM]	-7%	-5%[46.1 µM]	-5%
CN1CCC(N(C)S(=O)(=O)c2ccc(F)cc2F)CC1	4%	1%	/	/	1%[46.1 µM]	7%	?	-4%
O=C(Nc1cnn(Cc2ccc(Cl)c(Cl)c2)c1)C12CC3CC(CC(C3)C1)C2	17%	-33%	-6.0%	?	?	3%	13µM*	0%
COc1ccccc1C(=O)NCC1(c2ccccc2)CCCC1	-36%	-2%	/	/	?	9%	?	-27%
COc1cc(OC)c2ccc(=O)oc2c1C(CC(=O)N1CCCC1)c1ccc2c(c1)OCO2 (configuration not stated)	1%	0%	/	/	/	-18%	/	1%
Cc1cc(=O)oc2cc(OCC(=O)NCCCn3ccnc3)ccc12	-9%	-4%	/	/	/	-9%	/	-11%
CC(=O)c1c(O)c2ccccc2n(C2CCCCC2)c1=O	5%	-2%	/	/	-22%[46.1 µM]	-1%	-11%[46.1 µM]	?
COc1ccc2c(Sc3ccccc3)c(C(=O)N3CCC(C)CC3)[nH]c2c1	/	/	-7.4%	?	8%[46.1 µM]	/	3%[46.1 µM]	98%[activator]
Cc1cc(=O)[nH]c(SCC(=O)NN(c2ccccc2)c2ccccc2)n1	0%	0%	/	/	/	6%	/	-7%
CC(C)N1C(=O)S/C(=C/c2cccnc2)C1=O	-5%	-8%	0.7%	-6%	28%	-14%	18%	0%
CCOC1=NC(=C(c2ccccc2)c2ccccc2)OC1=O	/	/	/	/	-17%[46.1 µM]	1%	0%[46.1 µM]	-26%
Cc1cccn2c(=O)c3cc(C(=O)NCCCOC(C)C)sc3nc12	-5%	0%	/	/	-10%[46.1 µM]	-23%	2%[46.1 µM]	-8%
Cc1nnc(N2CCC(C(=O)NC3CCCCC3)CC2)c2nn(-c3ccccc3)c(C)c12	/	/	-5.9%	0%	6%[46.1 µM]	/	/	-15%
CC1C(=O)N(Cc2cccc(F)c2)c2ccccc2N1C(=O)c1ccccc1 (configuration not stated)	-8%	-5%	/	/	-7%	13%	?	18µM*
CC(=O)Nc1cccc(NC(=O)C2CCCN2C(=O)Nc2ccc(C)cc2)c1 (configuration not stated)	-8%	1%	-1.0%	5%	8%	9%	11%&11%	1%
COc1cccc(CC(=O)Nc2nc(-c3ccc(F)c(F)c3)cs2)c1	-8%	-6%	/	/	?	-9%	?	-20%
CN(C(=O)COC(=O)c1ccc(-c2ccc(O)cc2)cc1)C1CCS(=O)(=O)C1 (configuration not stated)	13%	-1%	/	/	/	-2%	/	14%
COc1ccccc1NC(=O)COC(=O)c1cc2c(s1)CCC2	/	-4%	/	/	9%	-5%	2%&2%[46.1 µM]	-4%
O=C(CC(=O)NC1CCCCC1)N/N=C/c1ccccc1Cl	7%	14%	-0.7%	?	2%	12%	?	15%
Cn1nc(C(=O)NCCc2ccc3c(c2)OCCO3)c2ccccc2c1=O	/	2%	/	/	1%	6%	-9%	-11%
O=S(=O)(c1ccc(NC2CCCCC2)cc1)N1CCOCC1	-3%	0%	-3.5%	-1%	4%	8%	-20%	-26%
Cc1ccc(C(=O)NCC(=O)NC23CC4CC(CC(C4)C2)C3)cc1	4%	1%	/	/	/	18%	/	81%[activator]
CCOC(=O)c1ccc(NC(=O)c2nc[nH]c2C(=O)N2CCC(C)CC2)cc1	-47%	1%	/	/	/	-6%	/	10%
CC1(C)C2CCC1(C)C(NC(=O)/C=C/c1ccccc1)C2 (configuration not stated)	/	-34%	/	/	/	3%	?	-8%
Cc1ccc(N2CCN(CC(O)COC3CCCCC3)CC2)cc1 (configuration not stated)	-5%	-1%	3.0%	-1%	-2%	-16%	?	-6%
Cc1nnc(NC(=O)CSc2nnc(Cc3cccn3C)n2C)s1	?	10%	7.9%	-3%	/	0%	/	3%
CCN(CC)CCNC(=O)c1ccc(NC(=O)/C=C/c2ccc3ccccc3n2)cc1	12%	4%	/	/	-2%	-16%	?	?
O=C(c1ccc2c3n(nc2c1)-c1ccccc1CO3)N1CCCCC1	-12%	-16%	/	/	/	?	/	15%
Cc1ccc(C(=O)/C=C/Nc2cccc(O)c2)cc1	-12%[9.22 µM]	-21%	-9.0%	-21%	?	-19%	?	/
COc1ccc2c(Sc3ccc(C)cc3)c(C(=O)NCC(C)c3ccccc3)[nH]c2c1 (configuration not stated)	/	/	-6.7%	?	-6%[46.1 µM]	/	-1%[46.1 µM]	27%
CCC(=O)Nc1ccc(C(=O)NNC(=O)c2ccc(C)cc2)cc1	9%	0%	/	/	/	-12%	/	4%
O=C(COc1cc(O)c2c(=O)cc(-c3ccccc3)oc2c1)c1cccc([N+](=O)[O-])c1	7%	5%	/	/	3%	4%	?	4%
COc1ccc2cc(/C=N/NC(=O)c3ccc(CN(c4ccc(C)c(C)c4)S(C)(=O)=O)cc3)c(Cl)nc2c1	18%	8%	-7.9%	?	-3%	-12%	-23%	?
CC(=O)NCCc1nc2ccccc2n1Cc1ccccc1	4%	-1%	3.0%	-6%	/	9%	/	4%
COCCNC(=O)C1=CC(c2ccc3c(c2)OCO3)=NS(=O)(=O)N1C	/	/	-1.9%	8%	6%[46.1 µM]	/	?	13%
Cc1nc(SCC(=O)Nc2ccc(OCc3ccccc3)cc2)n[nH]1	3%	0%	/	/	/	11%	/	39%[activator]
COc1ccc(C2CC(=O)N(Cc3cccc(F)c3)c3ccccc3S2)cc1 (configuration not stated)	/	/	-1.4%	1%	/	/	?	?
CN(C)C(=O)N1CCCC(C(=O)NCc2ccccc2Cl)C1 (configuration not stated)	?	-2%	-0.2%	-9%	-1%	-7%	2%	17%
Cc1nc2c(C(=O)NCc3cccs3)cnn2c(C)c1Cc1ccc(F)cc1	-1%	8%	-9.7%	28%	-10%	/	19%	/
O=C(COc1ccccc1Cl)Nc1cc(NC(=O)COc2ccccc2Cl)cc(C(=O)O)c1	?	-1%	/	/	8.9µM*	-6%	?	38%[activator]
CCOc1ccccc1OCC(=O)N/N=C(\C)Cc1ccc(OC)cc1	16%	5%	-1.5%	11%	?	-5%	?	-10%
CCc1nccn1-c1cc(C(C)(C)C)nc2c(-c3ccc(Cl)cc3)cnn12	10%	?	-11%	?	11%	-19%	10%	-7%
Cc1c2cnn(CC(=O)NCCCN3CC(C)CC(C)C3)c(=O)c2c(C)n1Cc1ccc(Cl)cc1 (configuration not stated)	-6%	-1%	/	/	/	1%	/	-17%
The list goes on.
SMILES	NS1 function inh	SARS PLP yeast	Cruzain inh Det	Cruzain noTriton	LASV entry inh	RE007 growth inh	Marburg entry inh	2A StopGo
c1ccc2c(c1)nc1n2CN(Cc2ccc3c(c2)OCO3)CN1	-7%	-1%	-10%	2%	4%	-17%	-19%	1%
CC(=O)c1c(C)n(-c2ccc(N(C)C)cc2)c2ccc(OCC(N)=O)cc12	-65%	7%	1.5%	3%	-6%	-7%	?	?
COc1ccc(OCC(=O)N2CC3(C)CC2CC(C)(C)C3)cc1 (configuration not stated)	-15%	-3%	1.3%	10%	-25%	-13%	-10%	0%
COc1ccc(Nc2nnc(C)c(=O)[nH]2)cc1	7%	3%	-1.7%	-4%	-5%	-9%	0%	-6%
